CtBP-E1A blk: qHTS Assay for Inhibitors of the CtBP/E1A Interaction; activity change, % (no concentration beside the values); CtBP / adenovirus E1A interaction (AlphaScreen); AlphaScreen GST-E1A/His-CtBP binding, 1536-well; stronger effect = lower value; control for the full effect not named in the record; hit rate 0.49% among 340,000; in the data active means activity change below about -65%; inconclusive means about -30% to -65%; inactive means above about -30%; note: % is set by controls: 0 for no effect and ±100 for the full control effect; compound concentration not given in the record
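GST-E1A and His-tagged CtBP (125 nM each as 5X stock) were preincubated with pin-transferred compound for 2 h at 37 °C in the dark, then glutathione donor and nickel acceptor beads were added for 1 h before AlphaScreen reading.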
Sfp inh: qHTS Assay for Inhibitors of Bacillus subtilis Sfp phosphopantetheinyl transferase (PPTase); 4'-phosphopantetheinyl transferase ffp (Bacillus subtilis), Q9F4F7; Biochemical Sfp PPTase activity, qHTS; Potency, µM, inactives show max response, negative = inhibition, hits mostly inhibitors; hit rate 3.5% among 310,000; AID 1490, 2009; active = well fitted inhibition curve with a large enough effect; inconclusive = small, poorly fitted or top-dose-only effect, or another doubt; inactive = no such curve, though single readings can be large or run the other way;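 note: the enzyme is Sfp with the accession as filed and its product quenches rhodamine fluorescence; potency is the fitted concentration of half-maximal effect; 0% = enzyme reaction without inhibitor and -100% = no enzyme wells; top concentration of the series not given in the record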
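After 15 min at room temperature with compound, 15 nM Sfp received 5 uM rhodamine-CoA plus 12.5 uM BHQ-2-ybbR (50 mM Hepes pH 7.6, 10 mM MgCl2). Rate came from the fluorescence difference over 30 min, ex 525/em 598 nm.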
gsp agonist: qHTS for Agonist of gsp, the Etiologic Mutation Responsible for Fibrous Dysplasia/McCune-Albright Syndrome: qHTS; gsp mutant cells, cAMP HTRF, 30 min; control for the full effect not named in the record; hit rate 0.13% among 340,000; AID 624287, 2012; Potency, µM (series often up to 76.9 µM), inactives show at the highest dose activation (cAMP increase), hits mostly activators; active = well fitted activation curve with a large enough effect; inconclusive = small, poorly fitted or top-dose-only effect, or another doubt; inactive = no such curve, though single readings can be large or run the other way; cell line not stated here;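 note: phosphodiesterase inhibitor Ro 20-1724 added with compounds to block cAMP breakdown; potency is the fitted concentration of half-maximal effect; nearly all actives have a fitted effect of over 60% in size; about a fifth of the inactives were tested at one dose only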
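Cells stably selected in G418 were plated at 2000/well, grown 16-24 hr, then given compounds in DMSO with the PDE inhibitor […] (300 uM solution added) for 30 min at 37C; cAMP was read by HTRF.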
Menin MLL FP FL: qHTS Assay for Inhibitors Targeting the Menin-MLL Interaction in MLL Related Leukemias: Competition With Fluorescein Labeled MLL-derived Peptide; Fluorescence polarization, fluorescein-MLL peptide displacement from menin; FP activity change, % at 61.4 µM; 290,000 tested, under 10 active; inconclusive = falling polarisation curve, or a change in total fluorescence; inactive = total fluorescence flat and polarisation flat or rising; no compound was filed as active; the % refers to the polarisation; negative = inhibition;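 note: % of control where 0% means no effect; inhibitors lower the polarisation; unlabelled MLL peptide was the positive control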
gsp antag: qHTS for Antagonists of gsp, the Etiologic Mutation Responsible for Fibrous Dysplasia/McCune-Albright Syndrome: qHTS | hit rate 0.4% among 340,000 | gsp-mutant cells, cAMP HTRF, 30 min; control for the full effect not named in the record | Potency, µM (doses to about 76.9 µM), for inactives: top-dose activity change, negative = inhibition, hits mostly inhibitors; active = falling curve of any shape with a large fitted effect; inconclusive = falling curve, mostly with a smaller effect; inactive = flat or rising curve; cell line not stated here;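 note: intracellular cAMP measured with PDE inhibitor Ro 20-1724 present during compound exposure; potency is the fitted concentration of half-maximal effect; % is set by controls: 0 for no effect and ±100 for the full control effect; nearly all actives have a fitted effect of over 65% in size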
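HTRF cAMP measurement after 30 min RT detection following 30 min, 37C compound treatment alongside […] (added as 300 uM solution) in G418-selected cells seeded at 2000/well and grown 16–24 h.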
TRPV1 potentiator: HTS Assay for Compounds that Act as Potentiators of the Vanilloid Receptor 1. Transient receptor potential cation channel subfamily V member 1 (Homo sapiens), Q8NER1. TRPV1-expressing cells, Fluo-8 calcium influx, capsaicin EC20 potentiation; host cell line not named in the record; control for the full effect not named in the record. potentiation, % at 8.33 µM. hit rate 0.02% among 320,000; active means potentiation above 80%; inconclusive means 30% to 80%; inactive means below 30%; note: 0% is about no effect
Target sequence (Q8NER1 whole entry, looked up): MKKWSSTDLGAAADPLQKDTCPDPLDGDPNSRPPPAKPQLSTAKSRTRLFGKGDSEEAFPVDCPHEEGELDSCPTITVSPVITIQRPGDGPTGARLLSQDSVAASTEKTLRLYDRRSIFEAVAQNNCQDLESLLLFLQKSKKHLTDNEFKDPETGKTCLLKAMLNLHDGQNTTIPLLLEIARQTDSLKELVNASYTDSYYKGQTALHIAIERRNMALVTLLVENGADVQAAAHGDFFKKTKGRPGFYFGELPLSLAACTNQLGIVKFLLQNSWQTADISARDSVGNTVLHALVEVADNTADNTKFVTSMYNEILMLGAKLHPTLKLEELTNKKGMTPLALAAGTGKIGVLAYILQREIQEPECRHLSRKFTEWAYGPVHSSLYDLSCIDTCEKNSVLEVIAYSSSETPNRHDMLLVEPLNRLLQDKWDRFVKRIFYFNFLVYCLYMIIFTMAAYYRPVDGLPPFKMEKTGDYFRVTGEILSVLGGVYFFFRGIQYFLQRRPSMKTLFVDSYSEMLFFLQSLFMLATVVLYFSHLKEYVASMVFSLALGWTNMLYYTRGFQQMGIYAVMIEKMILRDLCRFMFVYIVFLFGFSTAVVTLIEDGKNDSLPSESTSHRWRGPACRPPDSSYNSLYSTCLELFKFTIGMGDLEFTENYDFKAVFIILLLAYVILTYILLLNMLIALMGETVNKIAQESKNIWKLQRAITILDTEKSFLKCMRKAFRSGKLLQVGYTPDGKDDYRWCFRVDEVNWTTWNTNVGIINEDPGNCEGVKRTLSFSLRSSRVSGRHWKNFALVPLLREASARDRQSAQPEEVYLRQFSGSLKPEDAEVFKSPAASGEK
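Fluo-8 calcium influx in TRPV1-expressing cells, kinetic read (ex 480/em 520 nm). Compound added and read 3 min for agonist activity, followed by capsaicin at EC20 final and 2 min further read for enhancement.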
ClpP mod: qHTS Assay for Activators of ClpP; hit rate 1.9% among 340,000; Potency, µM (highest dose often 57.5 µM), without a hit: at the top dose activity change, negative = active; ATP-dependent Clp protease proteolytic subunit (Bacillus subtilis (strain 168)), P80244; AID 651965, 2013; purified B. subtilis ClpP, FRET peptide cleavage, 20 min; active = well fitted falling curve with a large enough effect; inconclusive = small, poorly fitted or top-dose-only effect; inactive = no such curve, though single readings can be large or run the other way; note: potency is the fitted concentration of half-maximal effect; the source files actives as falling curves though it sought activators and does not explain the sign; nearly all actives have a fitted effect of over 65% in size; many hits overshoot -100%
Target sequence (P80244 whole entry, looked up): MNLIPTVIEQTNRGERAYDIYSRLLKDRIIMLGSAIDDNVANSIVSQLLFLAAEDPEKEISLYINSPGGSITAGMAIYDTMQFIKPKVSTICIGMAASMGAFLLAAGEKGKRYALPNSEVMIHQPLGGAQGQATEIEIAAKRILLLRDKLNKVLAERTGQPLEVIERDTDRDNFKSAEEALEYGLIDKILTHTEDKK
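FRET quenching reversal measured ClpP activation: 10 microg/mL B. subtilis ClpP at pH 8 with the FRET-FV decapeptide, read at 430 nm after 320 nm excitation. The 20-min minus 0-min signal was scaled between DMSO/no-enzyme wells and ADEP (5.8 microM final).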
Starred values were filed as active, the others as inactive; ? = inconclusive; · = no result given; [ ] = dose if it differs, or a comment.

Below each compound: CtBP-E1A blk	Sfp inh	gsp agonist	Menin MLL FP FL	gsp antag	TRPV1 potentiator	ClpP mod
Cc1cc(C)c2nc(NNC(=O)c3cc(-c4cccs4)nc4ccccc34)sc2c1
  0	-27%	?	5.3	10%	21	-0.6%
COC(=O)c1cc2c(ccn2-c2ccc(F)cc2)n1Cc1ccc(C#N)cc1
  -6	?	-3%[15.4 µM]	3.9	-14%	-1	1.3%
COc1ccc(S(=O)(=O)N2CN3CCN(C3)C2)cc1
  ·	20%	-6%	2.9	0%	27	1.2%
CCOC(=O)[C@H]1[C@H]2COc3cc(OC)ccc3[C@@H]2N2C(=O)c3cc(OC)ccc3NC(=O)[C@@]12C
  3	·	·	·	-3%	-14	-1.9%
Cc1ccc(C(C)C)cc1OCC(=O)Nc1ccccc1N1CCCC1
  -9	-3%	?	·	-4%	1	-1.0%
CCOc1ccc(NS(=O)(=O)c2ccc(-c3ccc(=O)[nH]n3)o2)cc1
  -25	11%	-62%[inhibitor]	-1.8	0%	5	-1.5%
CN(Cc1cnn(C)c1)Cc1nc(-c2ccc(Cl)cc2)no1
  5	5%	?	5.2	9%	-2	0.8%
CC(C)(C)NC(=O)COc1ccc(S(=O)(=O)N2CCCC2)cc1
  ·	3%	-12%	-4.8	3%	-11	-1.7%
Cc1ccccc1C(=O)NC(=S)Nc1cccc(NC(=O)C(C)C)c1
  -3	4%	10%[15.4 µM]	-0.4	0%	12	·
CCOC(=O)c1ccc(NC(=O)Nc2c(C)n(C)n(-c3ccccc3)c2=O)cc1
  -5	18%	-8%	·	-3%	2	0.3%
O=C(CCC1CCCC1)Nc1cccc(Cc2ccncc2)c1
  1	5%	-2%	-0.5	-1%	-11	·
Nc1nc(Br)c2ccccc2c1-c1ccc(F)cc1
  48	3%	14%	4.7	20%	·	4.5%
COc1cccc(C2CC(c3ccccc3)n3ncnc3N2)c1 (configuration not stated)
  5	-7%	-46%[inhibitor]	1.9	11%	-10	2.1%
CC(C)(C)c1ccccc1NC(=O)CN1C(=O)NC(Cc2ccccc2)C1=O (configuration not stated)
  6	·	-32%	·	-3%	5	2.2%
Cc1ccc(S(=O)(=O)NCCCn2ccnc2)cc1C(=O)NC(C)C
  ·	17%	-10%	-1.6	9%	3	-0.8%
CN(CC(=O)Nc1ccccc1C(F)(F)F)C(=O)COc1cccnc1[N+](=O)[O-]
  4	8%	-9%	-1.9	16%	1	1.8%
CC(C)(C)C(=O)CNS(=O)(=O)c1ccc(S(=O)(=O)NC2CCCC2)cc1
  11	13%	-15%	-2.4	-6%	-24	-0.2%
Cc1ccc(NC(=O)CCC(=O)NNC(=O)COc2ccc([N+](=O)[O-])cc2)c(C)c1
  8	4%	-4%	·	12%	-1	1.3%
CCN(CC(=O)Nc1c(F)cccc1F)C(=O)C1COc2ccccc2O1 (configuration not stated)
  -22	·	-13%[15.4 µM]	·	7%	?	-7.4%
O=C(Cn1cc(C(=O)c2cccs2)c2ccccc21)NCc1cccs1
  -13	7%	-1%	-1.8	-19%	9	-2.9%
CCOCCCNC(=O)C1CCCN1C(=O)NC1CCCCC1 (configuration not stated)
  3	8%	-2%	3.6	11%	-2	0.1%
COc1ccc(-c2cn3c(C)c(C(=O)NC(C)(C)C)sc3n2)cc1
  -25	-8%	8%	-3.1	-7%	3	1.0%
O=c1c([N+](=O)[O-])cccn1Cc1ccc(F)cc1Cl
  -1	20%	10%[15.4 µM]	7.0	2%	?	-0.4%
CCOC(=O)N1CCN(C(=O)C(=O)N/N=C/c2ccc(OC)cc2OC)CC1
  -1	5%	13%[15.4 µM]	5.9	-3%	-11	-1.1%
Cc1cccc2cc(CN(CC(C)C)S(=O)(=O)c3ccccc3)c(=O)[nH]c12
  2	7%	-25%	·	-24%	-10	-13%
Cc1nc2ccccc2n1CC(=O)OCC(=O)Nc1ccc2c(c1)OCCO2
  1	7%	30%	0.7	-16%	5	-1.5%
O=S(=O)(NCCCN1CCOCC1)c1ccc(Cl)s1
  9	5%	24%	-2.3	16%	-8	1.1%
COc1nc(N)c(S(=O)(=O)c2ccccc2C)cc1C#N
  6	2%	21%	2.8	-11%	-6	-18%
Cc1ccsc1C(=O)Nc1ccccc1N1CCOCC1
  2	4%	12%	0.5	-13%	1	0.4%
Cc1c(C)c(C)c(S(=O)(=O)NCCC(=O)N2CCN(Cc3ccc(C#N)cc3)CC2)c(C)c1C
  2	·	1%	·	?	-2	0.4%
C/C(=N/NC(=O)CN1CCN(S(=O)(=O)c2ccc(Br)cc2)CC1)c1ccco1
  5	8%	0%	4.5	?	-4	-0.4%
O=S1(=O)CCN(CCCCc2ccccc2)CC1
  0	·	11%	·	·	·	0.6%
CC(=O)Nc1ccc(S(=O)(=O)NC(C)C(=O)OCC(=O)NC2CCCC2)cc1 (configuration not stated)
  4	0%	-5%	-2.0	3%	-1	-2.4%
O=C1CCCN1CCC1CCCCN1Cc1nc(-c2cnccn2)no1 (configuration not stated)
  ·	21%	-49%[inhibitor]	0.7	8%	-10	-0.5%
COC(=O)c1ccccc1NC(=O)C1CCN(C(=O)Cc2ccccc2)CC1
  2	-4%	13%[15.4 µM]	·	-7%	-28	-26%
CCCN(C(=O)COC(=O)CSc1ccc([N+](=O)[O-])cc1)C1CCS(=O)(=O)C1 (configuration not stated)
  7	·	3%	·	-12%	-1	2.0%
COc1ccccc1OCC(=O)NNC(=O)c1ccc(F)c(S(=O)(=O)N2CCOCC2)c1
  0	·	?	·	-3%	·	0.0%
OC(C[n+]1ccccc1)c1ccccc1 (configuration not stated)
  0	-1%	-5%	-0.7	9%	1	0.4%
O=C(Cc1ccc(F)cc1)Nc1nnc(-c2ccc(F)cc2)o1
  ?	25%	14%	0.0	5%	-8	-5.4%
Cc1nc(CCNC(=O)C2CCC(=O)N(Cc3ccc(Cl)cc3)C2)sc1C (configuration not stated)
  8	6%	20%	6.8	-2%	9	-0.3%
O=C(NCCN1CCOCC1)c1cccc(S(=O)(=O)N2CCCCCC2)c1
  8	13%	-8%	-2.4	11%	-3	-0.4%
Clc1ccc(Cn2ncc3c(N4CCCC4)ncnc32)cc1
  -4	-4%	13%	5.4	14%	-2	-0.4%
CC1CCN(CC(C)OC(=O)c2ccc3c(c2)OCCO3)CC1 (configuration not stated)
  0	12%	6%	1.7	-8%	·	-3.5%
CCOC(=O)c1c(C)[nH]c(C(=O)Cn2nnc(-c3ccccc3)n2)c1C
  0	-8%	10%	13	2%	5	0.5%
CC(=O)c1ccc(OC(=O)COc2ccccc2Cl)cc1
  -4	-4%	?	-4.2	9%	5	0.2%
O=C(COC(=O)c1cc(Cl)nc(Cl)c1)Nc1ccc(Cl)c(S(=O)(=O)N2CCOCC2)c1
  -19	·	?	·	-3%	·	·
COC(=O)c1cc(=O)n(Cc2ccc3c(c2)OCO3)c(=Nc2ccc(F)c(Cl)c2)s1
  -2	?	-20%	2.8	2%	-5	-2.4%
Cc1ccc(NC(=O)CN2C(=O)C(=O)N(C3CCCC3)C2=O)cc1Cl
  11	·	-7%	·	-13%	-4	-0.7%
COc1ccccc1NS(=O)(=O)c1c(C(=O)N2CCCC2)c(C)n(C)c1C
  4	13%	?	·	7%	-5	-0.6%
O=C(NCc1ccco1)C1CCCN1S(=O)(=O)c1ccc2ccccc2c1 (configuration not stated)
  0	?	-19%	1.8	0%	2	-1.1%
O=C(NCCCN1CCOCC1)C(=O)N/N=C/c1ccccc1O
  ?	31%[activator]	-27%[15.4 µM]	1.7	-1%	4	·
Cn1nnnc1SCC(=O)NCc1ccccc1
  17	6%	6%	-0.7	2%	-6	-1.1%
COc1ccc(C(=S)N2CCOCC2)cc1OC(=O)c1ccccc1
  -2	56µM*	?	5.1	3%	7	·
CC1CCN(C(=O)/C(=C\c2ccccc2)NC(=O)c2ccccc2)CC1
  0	-2%	7%[15.4 µM]	0.5	-2%	-12	·
O=S(=O)(c1ccc(F)cc1)N1CCN(Cc2ccccn2)CC1
  0	-1%	?	3.0	11%	-14	·
Cn1c(NC(=O)c2cccs2)c(-c2cccs2)c(=O)c2ccccc21
  4	2%	20%	18	-19%	4	-1.3%
O=C(CCS(=O)(=O)c1ccccc1Cl)NC1CCCCCC1
  7	·	-2%[15.4 µM]	·	10%	·	-0.6%
O=C(NCc1ccccc1)c1cccnc1
  ·	15%	23%	0.5	3%	-32	-1.8%
COc1cccc(C(=O)Nc2cccc(-c3ccccc3)c2)c1
  ·	19%	-30%	-0.8	?	29	-1.4%
CNC(=S)SCCOc1ccccc1
  5	14%	22%	3.7	3%	8	·

Given as labelled records: entries from further up.
> O=S(=O)(c1ccc(F)cc1)N1CCN(Cc2ccccn2)CC1
  CtBP-E1A blk: 0; Sfp inh: -1%; gsp agonist: ?; Menin MLL FP FL: 3.0; gsp antag: 11%; TRPV1 potentiator: -14; ClpP mod: ·

> Cn1c(NC(=O)c2cccs2)c(-c2cccs2)c(=O)c2ccccc21
  CtBP-E1A blk: 4; Sfp inh: 2%; gsp agonist: 20%; Menin MLL FP FL: 18; gsp antag: -19%; TRPV1 potentiator: 4; ClpP mod: -1.3%

> O=C(CCS(=O)(=O)c1ccccc1Cl)NC1CCCCCC1
  CtBP-E1A blk: 7; Sfp inh: ·; gsp agonist: -2%[15.4 µM]; Menin MLL FP FL: ·; gsp antag: 10%; TRPV1 potentiator: ·; ClpP mod: -0.6%

> O=C(NCc1ccccc1)c1cccnc1
  CtBP-E1A blk: ·; Sfp inh: 15%; gsp agonist: 23%; Menin MLL FP FL: 0.5; gsp antag: 3%; TRPV1 potentiator: -32; ClpP mod: -1.8%
